CDC25B CDK2 inh – primary biochemical HTRF screen for blockers of M-phase inducer phosphatase 2 binding to CDK2/cyclin A | 94,000 compounds, 0.72% hits | z-score (no concentration beside the values) | HTRF CDC25B-CDK2/CyclinA binding, anti-His/anti-Flag; active compounds read high | P30305+P24941;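 note: score is relative to mean and SD of negative controls; strong numbers were not always called active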
HIV TAR-Tat – TAR RNA-Tat peptide displacers, HIV-1, primary screen, biochemical, FRET, FAM/TAMRA-labeled Tat | HIV-1 TAR RNA, Tat peptide displacement FRET; active compounds read high | z-score (no concentration beside the values) | 100,000 compounds, 0.6% hits | AID 1259389, 2018;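 note: score is relative to mean and SD of negative controls; some compounds called inactive have numbers as strong as hits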
An asterisk follows results filed as active; . = no result given.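 Rule for the calls: active = z-score from 3 up in half or more of its runs; inactive = the rest.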

Order of results – CDC25B CDK2 inh	HIV TAR-Tat
[1] Clc1cccc(-c2noc3ncnc(Nc4ccccc4)c23)c1
 : .	-0.17
[2] Cc1cccc(C)c1-n1nnnc1C(C)(C)N(C)C
 : .	1.3
[3] CCN(CC)S(=O)(=O)c1ccc2c(c1)nnn2C1CCN(C(=O)NC2CCCCC2)CC1
 : .	-0.53
[4] NC(=O)c1cc(S(=O)(=O)N2CCN(c3cccc(Cl)c3)CC2)cs1
 : .	0.99
[5] NC(=O)C1CCN(CC(O)COc2ccc(-c3csnn3)cc2)CC1 (centres undefined)
 : -3.2	.
[6] CCOc1ccc(S(=O)(=O)N2CCN=C2SC)cc1
 : -2.5	0.14
[7] CCc1ccc(S(=O)(=O)Nc2cccc(-c3ccc(OC)nn3)c2)s1
 : .	1.1
[8] O=C(NC1CCCCC1)N1CCC(n2c(CC3CCCC3)nc3cccnc32)CC1
 : .	-0.89
[9] O=C(NC1CCCC1)c1nc(-n2cnnc2)ccc1Br
 : .	0.94
[10] Cc1nc(-c2nn(-c3ccccc3)c(=O)n(CC(=O)O)c2=O)no1
 : -1.5	0
[11] O=C(O)C1C2C=CC(C2)C1C(=O)NCc1ccc(-c2cccs2)s1 (centres undefined)
 : -0.76	.
[12] Cc1cccnc1-n1c(C)c(C)c2c1ncn1nc(-c3ccc(N(C)C)cc3)nc21
 : -1.6	0.31
[13] O=S(=O)(c1ccc(Br)cc1)N1CCCN(Cc2cccc(F)c2)CC1
 : -1.2	.
[14] CCCN1CCN(C2=NS(=O)(=O)C(c3ccc(OC)cc3)=C2C)CC1
 : -1.5	-0.15
[15] O=C(O)Cc1ccc(C(=O)CSc2ccc(Cl)cc2)s1
 : -0.79	.
[16] CCc1nnc2sc(CCc3ccccc3)nn12
 : 1.2	1.3
[17] Cc1cc(C)cc(NS(=O)(=O)c2cc3c(cc2C)N(C)CCO3)c1
 : .	3.3
[18] COC(=O)C1=C(C)N=C2SC(C#N)=C(N)N2C1c1ccc(F)cc1 (centres undefined)
 : -1.8	.
[19] O=C(O)/C=C/C(=O)NCCNC(=O)Cc1ccc(O)cc1
 : 0.28	.
[20] CC1=[N+]([O-])C(C)(C)CC(C)(C)c2ccccc21
 : -0.32	.
[21] CCOC(=O)Cn1sc2nc(C)cc(C)c2c1=O
 : -2	.
[22] CSc1ncc(C(=O)NCCc2ccc(Cl)cc2)c(C(F)(F)F)n1
 : .	0.05
[23] CCCC(=O)Nc1nnc(SCc2cc(=O)n3c(C)csc3n2)s1
 : .	0.57
[24] Cc1ccc(OCC(O)Cn2c(C)nc3ccccc32)cc1C (centres undefined)
 : -0.91	-0.26
[25] CCOC(=O)NC(NNc1ccccc1)(C(F)(F)F)C(F)(F)F
 : -1.2	.
[26] CCNc1cc(N2CCN(c3ncccn3)CC2)c2noc3c2c1C(=O)c1ccccc1-3
 : -1.1	0.94
[27] CC(C)(C)C1CCc2c(sc3nc(CCC(=O)N4CCCCC4)[nH]c(=O)c23)C1 (centres undefined)
 : .	1.4
[28] Oc1ccccc1-c1nc(-c2ccccc2)nc(-c2ccccc2)n1
 : 0.59	.
[29] CCN(CC)Cc1c(O)ccc2c(=O)c(-c3ccccc3)c(C(F)(F)F)oc12
 : 0.29	.
[30] O=C(Nc1c2c(nn1-c1cccc(Cl)c1)CS(=O)(=O)C2)c1ccco1
 : .	0.36

7 entries from above, ordered by count of non-hydrogen atoms, rising:
Order of results – CDC25B CDK2 inh	HIV TAR-Tat
[16] CCc1nnc2sc(CCc3ccccc3)nn12
 : 1.2	1.3
[2] Cc1cccc(C)c1-n1nnnc1C(C)(C)N(C)C
 : .	1.3
[9] O=C(NC1CCCC1)c1nc(-n2cnnc2)ccc1Br
 : .	0.94
[24] Cc1ccc(OCC(O)Cn2c(C)nc3ccccc32)cc1C (centres undefined)
 : -0.91	-0.26
[18] COC(=O)C1=C(C)N=C2SC(C#N)=C(N)N2C1c1ccc(F)cc1 (centres undefined)
 : -1.8	.
[28] Oc1ccccc1-c1nc(-c2ccccc2)nc(-c2ccccc2)n1
 : 0.59	.
[3] CCN(CC)S(=O)(=O)c1ccc2c(c1)nnn2C1CCN(C(=O)NC2CCCCC2)CC1
 : .	-0.53

Other structures.
Order of results – CDC25B CDK2 inh	HIV TAR-Tat
[31] COc1ccc(CCN2COc3ccc4c(oc(=O)c5ccccc54)c3C2)cc1OC
 : 0.42	0.48
[32] CS(=O)(=O)N1CCCc2ccc(NS(=O)(=O)c3cccs3)cc21
 : .	1.7
[33] Cc1ccc(CN2CCN(C3CCNCC3)C2=O)cc1
 : .	1.2
[34] Cc1csc2nc(CCNS(=O)(=O)c3ccc(F)cc3)cn12
 : .	0.92
[35] O=C(Nc1ccc(N2C(=O)c3cccnc3C2=O)cc1)c1ccco1
 : -0.2	0.08
[36] COc1ccc2ncc(S(=O)(=O)c3ccc(C)cc3)c(N3CCCC3)c2c1
 : 0.9	0.44
[37] O=C(CC1Oc2ccccc2NC1=O)NCCCN1CCOCC1 (centres undefined)
 : -1.5	2.5
[38] Fc1ccc(C2NC(=S)NC3=C2N2CCC3CC2)cc1 (centres undefined)
 : -0.64	.
[39] Cc1cccc(N2CCN(CC(O)c3ccc4[nH]ccc4c3)CC2)c1C (centres undefined)
 : -2.2	-1
[40] CSc1nc2ccc(NC(=O)CS(=O)(=O)c3ccc(Cl)cc3)cc2s1
 : .	1.1
[41] CC1CC(C)CN(CC2CCN(C(=O)Nc3ccc(Br)cc3F)CC2)C1 (centres undefined)
 : .	0.41
[42] Cn1cc(NC(=O)N2CCN(c3ccccn3)CC2)c2ccccc2c1=O
 : .	-1.1
[43] CCOC(=O)C1CCCN(C(=O)C(C)n2nc(CC)n3c(cc4occc43)c2=O)C1 (centres undefined)
 : -0.33	1.4
[44] C=CCNC(=O)C(C)N1c2cccc3cccc(c23)S1(=O)=O (centres undefined)
 : -1.1	0.88
[45] COc1ccc(Nc2c(-c3ccc(Cl)cc3)nc3ncccn23)cc1OC
 : -2	-0.81
[46] Cc1ccc(CSc2nc3nccnc3c(=O)n2Cc2ccc(F)cc2)cc1
 : .	1
[47] COC(=O)c1sc2ccccc2c1S(=O)(=O)NCc1cccs1
 : .	0.62
[48] O=C(O)c1nc(N2CCCCC2)c2c(-c3ccc(Cl)cc3)noc2n1
 : -1	-0.04
[49] Cn1c(=O)[nH]c(=O)c2c1nc(N1CCCCC1)n2CC(O)c1ccccc1 (centres undefined)
 : -1.3	0.8
[50] CCOC(=O)c1noc2ncnc(Nc3ccc4c(c3)OCCO4)c12
 : .	-0.34
[51] O=C(Cn1cc2c(n1)CCCCCC2)NCCN1CCOCC1
 : -0.56	0.52
[52] COc1ccccc1NS(=O)(=O)c1cccc(S(=O)(=O)Nc2ccccc2OC)c1
 : -0.69	1.2
[53] N#Cc1ccccc1N1CCOCC1
 : -1.6	.
[54] CCOc1ccc(S(=O)(=O)N2c3ccc(C)cc3C(C)=CC2(C)C)cc1
 : -2.2	1.2
[55] Cc1ccnc(Nc2nc(-c3ccc(O)cc3)cs2)c1
 : 0.67	0.86
[56] CCc1nc(-c2csc(S(=O)(=O)Nc3ccccc3C)c2)no1
 : .	1
[57] COC(=O)c1c(N)n(-c2cccc(F)c2)c2nc3ccccc3nc12
 : -3.2	.
[58] CCCCOC(=O)CCn1[nH]c(=O)c2ccccc2c1=O
 : -0.39	.
[59] CC(=O)N1CC(C)=C(C#N)C1O (centres undefined)
 : -1.4	.
[60] Brc1ccc(-c2cnnc(-c3ccccc3)n2)cc1
 : -0.94	0.31
[61] COc1ccccc1-c1nnc2sc(-c3ccc(Cl)cc3)nn12
 : -2	1.5
[62] N#Cc1nc(/C=C/c2cccs2)oc1N1CCN(C(=O)c2cccc(Cl)c2)CC1
 : -2.2	1.5
[63] CCn1c(=O)c(N2CCN(C(=O)C3CCC3)CC2)nc2ccccc21
 : -1.7	0.44
[64] CCNc1nc(NCc2ccc(C)cc2)c2cnn(C)c2n1
 : .	0.97
[65] Cc1ccc(NC2=CC(=O)CC(C)(C)C2)cc1C
 : -1.2	-1.3
[66] Cc1ccc2[nH]cc(NC(=O)NCCCN3CCOCC3)c(=O)c2c1
 : -2.7	1.8
[67] CC(CCc1ccccc1)NC(=O)C1CCN(C(=O)c2cc3sccc3n2C)CC1 (centres undefined)
 : -1.4	.
[68] Cc1ccc(N2C(=O)C3ON(c4ccccc4)C(c4ccncc4)C3C2=O)cc1Cl (centres undefined)
 : -1.6	0.67
[69] Cc1ccc(CNC(=O)NC2COc3ccccc3C2)o1 (centres undefined)
 : .	0.89
[70] CC(C(=O)NCc1ccco1)n1ccc2cc(S(=O)(=O)N3CCCC3)ccc21 (centres undefined)
 : .	1.1
[71] CCOC(=O)c1c(S(=O)(=O)NCC(=O)NC2CCCCC2)c(C)n(CC)c1C
 : .	1.7
[72] O=C(CC1(O)C(=O)N(CCc2ccccc2)c2ccccc21)c1ccccn1 (centres undefined)
 : -0.76	-1.6
[73] O=C(Nc1nccs1)c1noc2c1CCc1sccc1-2
 : .	0.01
[74] Cn1ncc2c(Nc3cccc(Cl)c3)nc(N3CCCC3)nc21
 : .	1.5
[75] CCCCn1c(C)c(C)c2c1ncn1nc(-c3cccc(C)c3)nc21
 : -0.55	1.9
[76] Cc1c(C(=O)NC2CCCCC2)oc2ccc3c(c12)C(O)CC1(CCCCC1)O3 (centres undefined)
 : -2.8	0.76
[77] CCCCSC1=C(C#N)C(=O)NC(c2ccc(O)cc2)S1 (centres undefined)
 : -3.2	2
[78] Cc1csc2nc(-c3cccc(NS(C)(=O)=O)c3)cn12
 : .	0.59
[79] COc1cccc(-c2noc(N3CCc4ccccc43)n2)c1
 : .	-0.05
[80] CCCCCC(=O)Nc1nc2ccccc2s1
 : -1	0.89
[81] CCOc1ccccc1C1CC(=O)NC(SCC(=O)Nc2nccs2)=C1C#N (centres undefined)
 : -1.1	.
[82] CCOC(=O)C1CCN(S(=O)(=O)c2c(C)nc3sc(C)cn3c2=O)CC1
 : .	-0.93
[83] CC1=CC(=O)N(c2ccc(C3CCCCC3)cc2)C1=O
 : -2.3	.
[84] C=CCn1c(=O)c2cnc(-c3ccncc3)nc2n(C)c1=O
 : .	0.35
[85] CN1CCN2c3ncccc3Cc3ccccc3C2C1 (centres undefined)
 : .	2.6
[86] Cn1c(=O)oc2cc(S(=O)(=O)NCc3cccn3Cc3cccc(F)c3)ccc21
 : .	-0.44
[87] Cc1ccc(CNS(=O)(=O)c2cc(F)ccc2CN2C(=O)c3cccnc3C2=O)cc1
 : .	-0.13
[88] Cn1c(=O)c2c(ncn2CC(=O)N2CCCCC2)n(C)c1=O
 : -1.8	0.47
[89] CN(C)c1ccc(NS(=O)(=O)C2CCS(=O)(=O)C2)cc1 (centres undefined)
 : -2.4	1.1
[90] C=Cc1ccc(CN2CCCN(Cc3ccc(F)cc3)S2(=O)=O)cc1
 : .	0.26

New compounds follow.
Order of results – CDC25B CDK2 inh	HIV TAR-Tat
[91] CN1CCN(C(=O)C2Cc3ccccc3N2C(=O)c2ccccc2)CC1 (centres undefined)
 : .	1.2
[92] CNS(=O)(=O)c1cn(CC(=O)N2CCCC(C)C2)cc1S(=O)(=O)NC (centres undefined)
 : .	-0.37
[93] COC(=O)C1=C(C)Nc2nc(SCC(C)C)[nH]c(=O)c2C1c1cccs1 (centres undefined)
 : 0.01	-0.42
[94] COc1ccc(Br)cc1C1CC(=O)Nc2c1c(=O)nc(SC)n2C (centres undefined)
 : -1.5	-0.94
[95] CC1=C(C#N)C(c2ccc3c(c2)OCO3)C(C#N)=C(C)N1
 : -1.8	.
[96] CC1(C)OC(=O)C(=C2CCCCCN2)C(=O)O1
 : -3.7	.
[97] c1ccc(C2CC(c3ccc4c(c3)OCO4)Nc3nnnn32)cc1 (centres undefined)
 : .	1.6
[98] CCOC(=O)c1cccc(N2CC(O)=C(c3nc4ccc(C)cc4[nH]3)C2=N)c1
 : 2.1	1.1
[99] Cc1ccc(S(=O)(=O)NC(N)=NCCCC(NC(=O)OCc2ccccc2)C(=O)O)cc1 (centres undefined)
 : -0.24	.
[100] Cc1c(N2CCN(S(C)(=O)=O)CC2)c(=O)n(C)c(=O)n1-c1ccccc1
 : .	1.5
[101] O=C1CCC(N2C(=O)c3ccccc3C2=O)C(=O)N1 (centres undefined)
 : -1.9	1.2
[102] CCOC(=O)c1nc(N2CCN(c3ccccn3)CC2)c2ccccc2n1
 : .	1.4
[103] CC1=C(c2ccc(C)c(C)c2)S(=O)(=O)NC1=NCCC(C)C
 : -2.4	0.09
[104] Cc1cn(CC(=O)O)c(=O)c2ccccc12
 : -1.8	2.3
[105] Cc1cccc(-c2nc(Cn3nc(C)c4c(C)onc4c3=O)c(C)o2)c1
 : .	0.22
[106] CCOc1ccccc1NC(=O)N1Cc2c(sc3c2CCN(C)C3)-n2cccc2C1CC (centres undefined)
 : .	1.2
[107] Cc1ccc(Cn2c(CO)cnc2SCc2cccc(Cl)c2)cc1
 : .	1.3
[108] Cc1cc(-c2ccccc2)oc2cc3ccccc3c1-2
 : -1.4	.
[109] COc1cc(NC(=O)c2ncoc2-c2cccs2)cc(OC)c1
 : .	1.7
[110] O=C(CCCc1nnc2c(=O)n(-c3ccc(Cl)cc3)ccn12)N1CCN(c2ccccn2)CC1
 : .	1.3
[111] Brc1ccc(CN2CCc3nc(Nc4ccc5c(c4)OCO5)ncc3C2)cc1
 : .	-0.58
[112] N/C(=N\NC(=O)c1cccc(C(F)(F)F)c1)c1cnccn1
 : -1.7	.
[113] CCN(CC)C(=O)N1c2ccccc2CCc2ccccc21
 : -0.93	-1.6

Looked up by compound from the list above (four):
Order of results – CDC25B CDK2 inh	HIV TAR-Tat
[104] Cc1cn(CC(=O)O)c(=O)c2ccccc12
 : -1.8	2.3
[91] CN1CCN(C(=O)C2Cc3ccccc3N2C(=O)c2ccccc2)CC1 (centres undefined)
 : .	1.2
[97] c1ccc(C2CC(c3ccc4c(c3)OCO4)Nc3nnnn32)cc1 (centres undefined)
 : .	1.6
[110] O=C(CCCc1nnc2c(=O)n(-c3ccc(Cl)cc3)ccn12)N1CCN(c2ccccn2)CC1
 : .	1.3

Source: PubChem BioAssay

Rows are unselected; overall some 0.94% were active at least once.
